# Assay outcomes deposited in PubChem by National Center for Advancing Translational Sciences (NCATS).
# Six1-Eya2 inh = inhibitors of human Six1/Eya2 interaction; Q15475+O00167; AlphaScreen GST-Six1/His-Eya2 binding, biochemical; stronger effect = lower value; control for the full effect not named in the record; activity change, % (no concentration beside the values); 360,000 compounds, 0.56% hits; in the data active = activity change below about -65%; inconclusive = about -30% to -65%; inactive = above about -30%; also: % is scaled to controls: 0 for no effect and ±100 for the full control effect
# Target sequence (O00167 whole entry, looked up): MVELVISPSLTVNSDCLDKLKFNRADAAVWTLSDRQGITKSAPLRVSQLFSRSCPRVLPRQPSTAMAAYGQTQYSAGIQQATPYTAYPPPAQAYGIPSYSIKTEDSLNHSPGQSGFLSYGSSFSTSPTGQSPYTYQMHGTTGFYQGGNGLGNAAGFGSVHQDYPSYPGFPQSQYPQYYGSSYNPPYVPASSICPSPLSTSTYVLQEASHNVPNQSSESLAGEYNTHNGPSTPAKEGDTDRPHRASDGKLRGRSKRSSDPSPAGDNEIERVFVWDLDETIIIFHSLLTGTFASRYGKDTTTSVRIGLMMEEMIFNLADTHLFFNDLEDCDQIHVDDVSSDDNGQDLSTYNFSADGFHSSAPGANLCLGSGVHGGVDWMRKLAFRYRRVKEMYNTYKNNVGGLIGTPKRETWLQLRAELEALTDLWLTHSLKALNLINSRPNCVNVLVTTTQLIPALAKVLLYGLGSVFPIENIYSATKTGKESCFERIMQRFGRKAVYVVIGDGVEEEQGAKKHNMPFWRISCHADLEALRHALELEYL
# Target sequence (Q15475 whole entry, looked up): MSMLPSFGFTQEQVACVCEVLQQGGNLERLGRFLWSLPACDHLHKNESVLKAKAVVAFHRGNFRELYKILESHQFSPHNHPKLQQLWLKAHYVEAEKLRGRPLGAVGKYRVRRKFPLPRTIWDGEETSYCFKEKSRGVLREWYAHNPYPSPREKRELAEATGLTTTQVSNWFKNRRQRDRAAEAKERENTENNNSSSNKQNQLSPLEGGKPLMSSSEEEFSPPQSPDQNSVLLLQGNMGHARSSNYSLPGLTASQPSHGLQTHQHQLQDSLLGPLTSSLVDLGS
#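 AlphaScreen luminescence read after one hour at 37 °C in darkness. Pin-transferred compounds met GST-Six1 and His-Eya2 protein (5X stock 250 nM/500 nM) plus glutathione donor and Ni-chelate acceptor beads (5X, 50 ug/mL).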
# TRPV1 potentiator = human TRPV1 potentiation; AID 540277; 320,000 compounds, 0.02% hits; TRPV1-expressing cells, Fluo-8 calcium influx, capsaicin EC20 potentiation; host cell line not named in the record; control for the full effect not named in the record; Q8NER1; potentiation, % at 8.33 µM; active means potentiation above 80%; inconclusive means 30% to 80%; inactive means below 30%; also: 0% is about no effect
#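 TRPV1-expressing cells were cultured overnight at 35.5C and loaded with Fluo-8 calcium dye for 40 to 90 min at room temperature. After a 10 s baseline, compound was added and calcium influx was read kinetically for 3 min (ex 480/em 520 nm).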
# TRPML1 inh = inhibitors of human TRPML1 channel | activity change, negative = inhibition, % (no concentration beside the values) | Q9GZU1 | TRPML1-inducible cells, Ca2+ dye fluorescence, FDSS; stronger effect = lower value; inhibition of EC80 agonist-evoked calcium signal | 390,000 compounds, 0.02% hits; in the data active means activity change below about -50%; inconclusive means about -30% to -50%; inactive means above about -30%;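 also: stimulus is agonist 54-4 at its EC80 concentration; % is scaled to controls: 0 for no effect and ±100 for the full control effect; compound concentration not given in the record; the text of the record puts the active cut at -80%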
#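 TRPML1-DL cells, Tet-induced overnight (~16 h, 37 °C) at 1,500 cells/well, were loaded with Ca8 no-wash dye plus quencher for 45-90 min at room temperature. Compounds were pinned during FDSS kinetic reading; agonist 54-4 at EC80 (4 uM final) then added.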
# TRPML1 agonist = agonists of human TRPML1 channel. Q9GZU1. TRPML1-expressing cells, Ca2+ dye fluorescence, FDSS; host cell line not named in the record; reference of the full effect not given here. activation, % (concentration not given with the values). 410,000 compounds, 0.12% hits. AID 624414; in the data active = activation above about 50%; inconclusive = about 30% to 50%; inactive = below about 30%; also: 0% is about no effect; the text of the record puts the active cut at 80%
#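 Calcium fluorescence on an FDSS kinetic reader gave the read-out. Tet-induced TRPML1-DL cells were plated overnight, dye-loaded (Ca8 with quencher, 45-90 min, room temperature, dark), then read 110 s after compound addition, and again 110 s after 4uM final 54-4 (EC80).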
# D2 potentiator = potentiates the human D2 dopamine receptor allosterically. DiscoveRx D2 beta-arrestin cells, luminescence, 90 min; 100% = 57 uM dopamine signal. AID 624464. P14416. potentiation, % (concentration not given with the values). 360,000 compounds, 0.23% hits; active = potentiation of 50% or more; inconclusive = 30% to 50%; inactive = 30% or less;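 also: tested on top of an EC20 dose of dopamine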
#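 PathHunter D2 cells, attached overnight at 37 deg C, received compound in DMSO plus dopamine at EC20 (50 nM final) for 90 min at 37 deg C. Beta-arrestin recruitment was read as luminescence after 1 h with detection reagent at ambient temperature.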
# CtBP-E1A inh = blocks the CtBP interaction with E1A; AlphaScreen GST-E1A/His-CtBP binding, 1536-well; stronger effect = lower value; control for the full effect not named in the record; activity change, % (concentration not given with the values); AID 651724; 340,000 compounds, 0.49% hits; in the data active means activity change below about -65%; inconclusive means about -30% to -65%; inactive means above about -30%; also: % is scaled to controls: 0 for no effect and ±100 for the full control effect
#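 Homogeneous bead-based format: GST-tagged E1A captured on glutathione donor beads, His-tagged CtBP on nickel acceptor beads; compounds precede bead addition by 2 h at 37 °C.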
# * = called active by the depositor; ? = inconclusive; / = no result given; & = joins results of further samples.
SMILES,Six1-Eya2 inh,TRPV1 potentiator,TRPML1 inh,TRPML1 agonist,D2 potentiator,CtBP-E1A inh
Cc1ccc(NC(=O)Cn2nc(-c3ccco3)ccc2=O)cc1Cl,-4.2,-5.6,-3.9,-0.4,-4.9,-2.0
COC(=O)C1=C(C)N(c2ccc(OC)c(OC)c2)C(=O)/C1=C\c1ccco1,-3.3,7.9,12.2,0.7,0.5,0.5
Cc1cccc(NS(=O)(=O)c2ccc3c(c2)CCN3C(=O)CCC(=O)O)c1,-1.1,10.2,14.0,-0.4,-8.2,5.7
Cc1cc(C)n(-c2cc(-n3nc(C)cc3C)ncn2)n1,8.3,?,5.4,-0.2,2.7,8.0
COc1cc2cc(CN(Cc3ccc4c(c3)OCO4)C(=O)c3ccco3)c(=O)[nH]c2cc1OC,-8.5,/,4.3,0.4,-6.4,-10.7
CCCn1nnnc1SCC(=O)c1ccc2c(c1)OCCO2,0.5,0.1,3.4,-0.3,18.4,-0.7
CS(=O)(=O)N1Cc2cc(C(=O)NCC3CC3)nc(-c3cccc(-c4cccnc4)c3)c2[C@H]1CCO,-5.2,/,/,0.5,/,3.9
CCOc1ccc(NC(=O)Nc2ccc3c(c2)N(C)C(=O)CS3)cc1,-0.6,5.7,13.7,0.4,0.0,1.8
Cc1ccc(N(Cc2ccccc2)C(=O)c2ccc(F)c(S(=O)(=O)N3CCOCC3)c2)cc1,3.5,-20.7,-15.5,-0.7,-12.2,3.5
Cc1csc2ncc(C(=O)N3CCCc4ccccc43)c(=O)n12,-1.1,25.6,-12.8,-0.5,-3.5,4.6
O=C(O)COCC(=O)Nc1ccc2c(c1)oc1ccccc12,-2.6,3.4,-9.2,0.4,2.5,-0.1
CC(C)(C)c1ccc(C(=O)Oc2ccc3c(c2)OCC3=O)cc1,-2.2,-11.4,0.6,-0.8,-14.9,-1.0
O=C(OCn1nnc2ccccc2c1=O)c1ccco1,1.0,-3.8,-10.6,-0.1,-7.4,6.7
CCNC(=O)NCCc1c[nH]c2ccc(Cl)cc12,3.6,2.5,1.0,-0.4,-8.5,2.6
COc1ccc(NC(=O)c2cccc(N3C(=O)C4C5CCC(C5)C4C3=O)c2)cc1 (stereo unspecified),0.1,-13.7,7.9,-0.4,-23.4,0.1

# Nothing new here: two of the compounds above.
SMILES,Six1-Eya2 inh,TRPV1 potentiator,TRPML1 inh,TRPML1 agonist,D2 potentiator,CtBP-E1A inh
COc1cc2cc(CN(Cc3ccc4c(c3)OCO4)C(=O)c3ccco3)c(=O)[nH]c2cc1OC,-8.5,/,4.3,0.4,-6.4,-10.7
CCCn1nnnc1SCC(=O)c1ccc2c(c1)OCCO2,0.5,0.1,3.4,-0.3,18.4,-0.7

# Next records:
SMILES,Six1-Eya2 inh,TRPV1 potentiator,TRPML1 inh,TRPML1 agonist,D2 potentiator,CtBP-E1A inh
CCOC(=O)c1c(N)sc2c(NC(C)=O)cccc12,3.7,?,4.8,-0.3,-3.8,0.0
CCCCNC(=O)C1c2ccccc2OCC(=O)N1Cc1cccnc1 (stereo unspecified),3.7,/,/,-0.2,/,-2.6
ClCc1cc2ccccc2nc1Cl,5.7,12.3,-12.1,-0.9,-6.2,3.1
Cc1nc(CS(=O)(=O)c2ccccn2)sc1C(=O)NNC(=O)c1c(F)cccc1Cl,5.3,-9.3,9.7,-0.6,-8.5,-1.1
CC(C)Sc1nc(-c2cccs2)nc2cc(Cl)ccc12,2.2,/,/,0.5,/,11.8
O=C1C2C(c3cccc(/C=C/c4ccccc4)c3)CC=CC2C(c2ccc3ccccc3c2)N1Cc1ccccc1 (stereo unspecified),-0.5,-21.6,-24.8&2.5,0.4&-0.1,-5.4,0.1
CCCn1nc(C(=O)OCC(=O)c2c(N)n(C)c(=O)n(C)c2=O)c2ccccc2c1=O,-20.7,-0.3,1.7,2.3,14.9,-18.3
COc1ccc(NC(=S)Nc2cccc(C(F)(F)F)c2)c(C)c1,-2.3,-3.0,2.6,-0.3,-11.6,7.9
Cc1cc(Cl)ccc1-c1nc(NCc2ccccc2)nc2ccsc12,29.8,/,/,-0.4,-1.0,28.6
CC(C)NC(=O)CCCc1cn(C)c2ccccc12,-1.4,-23.6,20.9,0.6,-7.2,2.7
Cc1ccc(S(=O)(=O)N2[C@@H](c3cccc(Cl)c3)C(C(=O)O)=CC[C@H]2c2ccc(C(C)C)cc2)cc1,-5.2,-20.3,-8.9,2.1,-6.7,-11.1
COc1ccccc1OCC(=O)NNC(=S)NC(=O)c1ccco1,3.5,1.3,-11.4,-0.5,-11.7,17.9
COc1ccc(Cc2nc3ccccc3n2CC(=O)N/N=C/c2ccccc2)cc1OC,-2.8,-4.9,-6.7,-0.8,-16.9,-19.0
CCOC(=O)Cn1c(=O)c2c(nc3n2CCCCN3c2ccc(OCC)cc2)n(C)c1=O,-1.6,/,-13.5,2.0,0.2,4.2
CCOC(=O)C1CCN(C(c2cccs2)c2sc3nc(C)nn3c2O)CC1 (stereo unspecified),0.3,7.7,6.5,-0.5,-3.3,-0.8
O=C(NCc1ccc(F)cc1)c1cnn2ccccc12,2.3,0.1,-5.9,-0.5,-8.3,-27.7
CCNC(=S)NS(=O)(=O)c1ccc(Cl)cc1,-0.3,-3.0,29.5,0.5,-38.8,-0.6
Cc1nc2ccc(S(=O)(=O)NC(C(=O)N3CCCCCC3)C(C)C)cc2s1 (stereo unspecified),4.3,/,35.3,0.0,4.4,-7.3
CC(=O)N1c2c(cc(Br)cc2S(=O)(=O)NCc2ccc(C)cc2)CC1C (stereo unspecified),-5.1,-0.3,5.6,-0.1,-14.4,6.4
C=CCNC(=O)C1CC(=O)N(c2ccc(OCC(=O)Nc3cccc(OC)c3)cc2)C1 (stereo unspecified),1.4,-12.7,-1.6,-0.4,-15.5,9.1
CCC(CC)c1nnc(NC(=O)c2cccc(S(=O)(=O)N3CCOCC3)c2)s1,2.3,/,-0.2,0.2,-17.7,4.0
O=C(Nc1ccc2c3c(cccc13)CC2)c1ccco1,-6.7,-5.7,-8.3,1.6,-10.2,-7.0

# Ordered by molar mass (high to low): 14 of the compounds above
SMILES,Six1-Eya2 inh,TRPV1 potentiator,TRPML1 inh,TRPML1 agonist,D2 potentiator,CtBP-E1A inh
Cc1ccc(S(=O)(=O)N2[C@@H](c3cccc(Cl)c3)C(C(=O)O)=CC[C@H]2c2ccc(C(C)C)cc2)cc1,-5.2,-20.3,-8.9,2.1,-6.7,-11.1
CS(=O)(=O)N1Cc2cc(C(=O)NCC3CC3)nc(-c3cccc(-c4cccnc4)c3)c2[C@H]1CCO,-5.2,/,/,0.5,/,3.9
Cc1ccc(N(Cc2ccccc2)C(=O)c2ccc(F)c(S(=O)(=O)N3CCOCC3)c2)cc1,3.5,-20.7,-15.5,-0.7,-12.2,3.5
CCCn1nc(C(=O)OCC(=O)c2c(N)n(C)c(=O)n(C)c2=O)c2ccccc2c1=O,-20.7,-0.3,1.7,2.3,14.9,-18.3
CCC(CC)c1nnc(NC(=O)c2cccc(S(=O)(=O)N3CCOCC3)c2)s1,2.3,/,-0.2,0.2,-17.7,4.0
CCOC(=O)C1CCN(C(c2cccs2)c2sc3nc(C)nn3c2O)CC1 (stereo unspecified),0.3,7.7,6.5,-0.5,-3.3,-0.8
Cc1cccc(NS(=O)(=O)c2ccc3c(c2)CCN3C(=O)CCC(=O)O)c1,-1.1,10.2,14.0,-0.4,-8.2,5.7
COC(=O)C1=C(C)N(c2ccc(OC)c(OC)c2)C(=O)/C1=C\c1ccco1,-3.3,7.9,12.2,0.7,0.5,0.5
Cc1cc(Cl)ccc1-c1nc(NCc2ccccc2)nc2ccsc12,29.8,/,/,-0.4,-1.0,28.6
CCOc1ccc(NC(=O)Nc2ccc3c(c2)N(C)C(=O)CS3)cc1,-0.6,5.7,13.7,0.4,0.0,1.8
Cc1csc2ncc(C(=O)N3CCCc4ccccc43)c(=O)n12,-1.1,25.6,-12.8,-0.5,-3.5,4.6
CC(C)Sc1nc(-c2cccs2)nc2cc(Cl)ccc12,2.2,/,/,0.5,/,11.8
CCNC(=S)NS(=O)(=O)c1ccc(Cl)cc1,-0.3,-3.0,29.5,0.5,-38.8,-0.6
O=C(Nc1ccc2c3c(cccc13)CC2)c1ccco1,-6.7,-5.7,-8.3,1.6,-10.2,-7.0
